GIV Gai3 FP: GIV-Galpha-i interaction inhibition; hit rate 0.42% among 210,000; Galpha-i3/FITC-GIV peptide fluorescence polarization, 90 min; stronger effect = lower value; scaled: aluminum fluoride 0%, vehicle 100%; percent of control (FP), % (concentration not given with the values); AID 1224905;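 active = replicate mean at 85% of control or lower, very high polarization wells dropped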;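 note: wells of about 15 µL received 100 nL stock; the first replicate is given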
Target sequence (P08753 whole entry, looked up): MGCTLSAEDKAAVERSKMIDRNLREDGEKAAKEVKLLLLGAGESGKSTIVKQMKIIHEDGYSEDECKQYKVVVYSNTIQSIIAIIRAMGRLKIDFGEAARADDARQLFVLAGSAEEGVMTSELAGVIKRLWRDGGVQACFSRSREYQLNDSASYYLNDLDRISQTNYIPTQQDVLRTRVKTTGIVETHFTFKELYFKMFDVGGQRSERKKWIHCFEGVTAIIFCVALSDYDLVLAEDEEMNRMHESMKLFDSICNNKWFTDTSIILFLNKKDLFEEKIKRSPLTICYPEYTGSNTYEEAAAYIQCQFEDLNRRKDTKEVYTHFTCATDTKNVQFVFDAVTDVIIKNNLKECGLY
Sa growth 42C: inhibitors of Staphylococcus aureus growth at 42 °C; S. aureus RN4220 growth, OD600, 20 h; stronger effect = lower value; relative growth, % (concentration not given with the values); hit rate 0.53% among 170,000; AID 720641;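 active = growth at 42 °C up to 50% and 20 or more points under that at 30 °C, or under 10% at both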;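 note: 300 nL library stock went into each well; scaled to the means of positive and negative controls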
HCMV UL50-53 inh: cytomegalovirus nuclear egress complex inhibition; HTRF UL50-UL53 interaction, normalized percent inhibition; inhibition, % (no concentration beside the values); hit rate 0.15% among 190,000;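 active = both replicates at 50% or more, plus weaker picks with an unusually low signal ratio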;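 note: stock transfer was 100 nL into about 20 µL; 0% = negative control wells and 100% = wells with untagged competitor protein; inactives centre near -12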
Sa growth 42C second temp: recorded beside Sa growth 42C, whose call it bears; relative growth, %; measured here: growth at 30 °C;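 optical density after 20 h as mean of two plates; 100% = untreated growth and lower means inhibition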
Active calls of the source: *; x = no result given; & = joins results of further samples.

SMILES	GIV Gai3 FP	Sa growth 42C	Sa growth 42C second temp	HCMV UL50-53 inh
O=C(CN1C(=O)c2ccccc2Sc2ccccc21)NCc1ccccc1	105	116	88	-13
Cc1ccc2nc(-c3cc(NC(=O)c4cccc(OCc5ccccc5)c4)ccc3Cl)oc2c1	105	x	x	4
c1ccc(CN=C2CCc3ccccc3N2)cc1	x	108	88	0
O=C(CC1NCCNC1=O)Nc1ccccc1F (stereo unspecified)	106	88	93	12
Cc1cc2c(=O)n(Cc3ccco3)c(SCC(=O)N3CCc4ccccc4C3)nc2s1	101	93	102	-1
CCOC(=O)c1c(C2CC2)csc1NC(=O)Cn1c(SC(C)C)nc2ccccc21	x	120	107	-5
Cc1cc(N)n2ncc(-c3ccccc3)c2n1	104	83	40	-8
CC(C)N1C(=O)/C(=C\c2nc3ccccc3c(=O)n2-c2ccc([N+](=O)[O-])cc2)c2ccccc21	106	x	x	-3
Cc1ccc(NC(=O)N2CCN(c3cc(N(C)C)nc(C)n3)CC2)cc1	95	x	x	-22
COc1cc(=O)n(-c2ccccc2)nc1C(=O)Nc1ccc(Br)cc1	101	x	x	-3
CC(c1nnc(SCC(=O)Nc2sccc2C#N)n1-c1ccc(Cl)cc1)N(C)C (stereo unspecified)	x	93	95	-17
C=CCn1c(=O)c(C(=O)Nc2cccc(F)c2)c(O)c2ccccc21	112	x	x	-31
CCOc1cc(C2C3=C(CC(C)(C)CC3=O)OC3=C2C(=O)CC(C)(C)C3)cc(Br)c1OC	102	x	x	-22
Cc1ccc(-c2nc3ncccc3o2)cc1NC(=O)/C=C/c1ccc(Cl)cc1	94	106	101	-10
CCC(C)n1c(SCC(=O)Nc2ccc(OC)cc2OC)nc2ccsc2c1=O (stereo unspecified)	104	94	86	4
CC1Cc2ccccc2N1C(=O)C1(S(=O)(=O)c2ccccc2)CCCC1 (stereo unspecified)	x	98	101	7
Nc1nc2ccccc2n1C(=O)c1ccccc1	97	112	75	2
COc1ccc(CNC(=O)c2ccc(CS(=O)(=O)c3ccc(OC)cc3)o2)cc1	102	48	42	x
COc1ccc(N=Cc2sc3ccccc3c2O)cc1	-32*	107	99	x
NNc1ccc2[nH]c(=O)[nH]c2c1	x	107	67	-13
Cc1cc(C)c2c(n1)sc1c(Sc3nccn3C)ncnc12	104	107	99	46
COc1c(C(=O)O/N=C(\N)c2cccs2)csc1Cl	108	102	81	-16
COC(=O)c1c(NC(=O)CSc2nnc3sc4ccccc4n23)sc2c1CCCC2	103	x	x	-32
CN(C)CCCn1cnc2scc(-c3ccccc3)c2c1=O	101	x	x	-23
O=c1[nH]c2ccccc2nc1N1CCOCC1	x	97	91	-16
CC(=O)Nc1ccc(Br)cc1	101	100	86	-27
COc1cccc2c(=O)c3c(cnn3C)n(C)c12	x	108	96	-41
O=C(Nc1ccc(-c2noc(COc3ccc(Br)cc3)n2)cc1)c1cccnc1	106	113	92	x
COC(=O)C(NC(=O)CCc1c(C)nc2c(c(C)nn2-c2ccc(C)c(C)c2)c1C)C(C)C (stereo unspecified)	101	x	x	19
C=CCOC(=O)C1C(c2ccccc2)c2c([nH][nH]c2=O)CC1(C)O (stereo unspecified)	100	112	91	x
Cc1cc(S(=O)(=O)N2CCOCC2)ccc1OCC(=O)O	101	99	77	-20
Cc1cc(C)n2nc(SCC(=O)N(C)Cc3ccccc3)nc2n1	x	89	95	-16
Cc1ccc(C)c(NC(=O)Cn2cc(C(=O)C3CCCCC3)c3ccccc32)c1	103	84	91	-26
COc1ccc(-c2cc3nc(N)cc(=O)n3[nH]2)cc1	105	97	100	12
Cc1ccc(-c2nc3sc(CCNC(=O)c4ccco4)c(C)n3n2)cc1	99	110	88	x
COc1ccc2c(c1)CCc1sc(NC(=O)c3cc(OC)c(OC)c(OC)c3)nc1-2	96	84	63	x
N=C(SC1CC(=O)N(c2ccc(C(=O)O)cc2)C1=O)N1N=C(c2ccccc2)CC1c1ccccc1 (stereo unspecified)	x	73	70	-31
CCCc1nc2ccccc2n2c(-c3ccc(C)cc3)c3c(=O)n(C)c(=O)n(C)c3c12	101	97	83	-21
Cc1ccc(N(C)C(=O)n2nc(C)cc2C)cc1	106	93	90	-21
CC(C)NC(=O)c1cnc2sccn2c1=O	109	x	x	-22
COC(=O)c1ccc2c(=O)n3nc(NCC4CCCO4)sc3nc2c1 (stereo unspecified)	107	89	89	14
COc1ccc(-c2c(C#N)c(N)nc3sc(C(=O)c4ccc(Cl)cc4)c(N)c23)cc1	96	x	x	-30
NC(=O)C1CCN(c2nc(C3CC3)nc3c2nnn3Cc2ccccc2Cl)CC1	106	90	78	11
Cc1c(C(=O)NCc2ccccc2)oc2ccc(S(=O)(=O)N(C)C3CCCCC3)cc12	106	116	89	x
CC1CN(C(=O)c2scc3c2OCCO3)CC(C)O1 (stereo unspecified)	x	118	88	-8
CCc1ccc(CNC(=O)C(CC)n2nc(C)c3sc4ccccc4c3c2=O)cc1 (stereo unspecified)	107	x	x	1
N#Cc1ccc(NC(=S)NC(=O)C2CC2)cc1	x	84	93	5
Cc1ccccc1Nc1c(-c2cccs2)nc2cccc(C)n12	98	105	88	7
Cc1ccc(C2C3=C(CCCC3=O)Nc3c2c(=O)n(C)c(=O)n3C)cc1 (stereo unspecified)	113	90	90	0
CCC(C)NC(=O)CSc1c2c(nc3ccccc13)CCCC2 (stereo unspecified)	106	90	92	x
Cc1ccc(NC(=O)c2cc3c(=O)n(Cc4ccco4)ccc3nc2C)cc1	99	99	87	-8
CCOc1ccc(C(=O)N2CCC(c3ccncc3)CC2)cc1	101	97	89	x
Cc1ccc(-c2cc(N3CCN(S(=O)(=O)c4ccc(Br)cc4)CC3)ncn2)cc1	106	x	x	12
O=C1NC(=S)N/C1=C\c1cc(Br)c(O)c(Br)c1	108	x	x	-33
N#Cc1cc2c(=O)n3ccccc3nc2n(-c2nnc(SCc3ccccc3)s2)c1=O	100	105	90	-78
COc1ccc(Cn2c(C(=O)O)c(CNCc3ccc(OC)cc3OC)c3ccc(C)cc32)cc1	104	97	93	x
O=C(OC1CCOC1=O)c1ccc(S(=O)(=O)N2CCCc3ccccc32)cc1 (stereo unspecified)	x	92	94	-8
COc1ccc(OC)c(NC(=O)c2oc3c(c2C)C(O)CC(C)(C)C3)c1 (stereo unspecified)	106	96	93	-23
CCc1nnc(NC(=O)c2sc3nc4c(cc3c2N)CCCCCC4)s1	105	86	67	-3
O=C(CSCC(=O)N1CCCC1)Nc1nc(-c2cccs2)cs1	102	105	85	-31
Next part:
SMILES	GIV Gai3 FP	Sa growth 42C	Sa growth 42C second temp	HCMV UL50-53 inh
Cc1ccc(NC(=O)CCC(=O)N2CCSc3ccccc32)cc1	108	80	83	x
ON=C1c2ccccc2-c2ccccc21	95	89	83	-17
C=CCC1Cc2ccccc2C(CC=C)N1 (stereo unspecified)	99	92	91	-14
Cc1nnsc1C(=O)N/N=C/c1ccncc1	106	104	90	-97
CC(=O)Nc1ccc(S(=O)(=O)N2C(=O)c3cccc4cccc2c34)cc1	98	61	95	x
COc1ccc(NC2c3ccccc3C(=O)N2Cc2ccc3c(c2)OCO3)cc1 (stereo unspecified)	100	x	x	-16
Cc1nc2ncccc2c(=O)n1-c1ccc(F)c(NC(=O)CC2CCCCC2)c1	107	x	x	6
O=C1CSC(N2CCOCC2)=N1	x	92	91	-24
Cc1[nH]c(C)c(S(=O)(=O)N2CCC(C(=O)NC3CCCCC3)CC2)c1C(=O)N1CCCCC1	103	x	x	-26
CCN(CC)CCSc1nnnn1-c1ccccc1	101	87	84	-20
O=C(Nc1ccc(Br)cc1)c1nc(-c2ccccc2)n(-c2ccc(F)cc2)n1	102	x	x	-3
Cc1ccc(-n2ncc(C(=O)Nc3ccc4c(c3)OCCO4)c2C2CCN(C(=O)OC(C)(C)C)CC2)cc1	109	116	108	x
COc1cc(NC(=O)c2cc(-c3cccs3)on2)c(OC)cc1Cl	99	92	91	-4
COc1ccc(C2OC(c3ccc(Br)cc3)=NN2C(C)=O)cc1O (stereo unspecified)	98	x	x	3
CN(C)C(=O)C(C)(C)Oc1cc(C(F)(F)F)n(C)n1	103	109	92	2
C=CCOc1ccccc1N	102	97	76	-26
N#CC1=C(N)Oc2c(ccc3ccccc23)C1c1ccsc1 (stereo unspecified)	x	122	77	-15
Cc1ccc(-c2nnc(-n3cnc4cc(C)c(C)cc43)c3ccccc23)cc1	101	104	88	x
O=C(COC(=O)c1cccc(S(=O)(=O)N2CCCC2)c1)Nc1ccc2c(c1)OCCO2	x	105	92	-12
Cc1noc2nc(C)n(CC(=O)NC(C)C)c(=O)c12	105	x	x	-26
COc1ccc(Cl)cc1NC(=O)COC(C)=O	x	98	86	-19
Cc1ccc(N2Cc3cc(Cl)ccc3OCC2=O)cc1	103	x	x	20
Clc1ccc(-c2csc(=Nc3cccnc3)n2C2CC2)cc1	x	107	91	-30
Cc1ccccc1OCC(=O)Nc1ccc(C(=O)OCc2cc(=O)n3ccsc3n2)cc1	109	93	92	x
COCCNc1oc(-c2ccc(COc3ccc(OC)cc3)o2)nc1C#N	98	105	95	-34
O=C1CSC(=Nc2ccc(Cl)cc2)N1	157	106	89	-24&-7
CCCOc1cccc(C(=O)Nc2nnn(C)n2)c1	x	118	80	-9
O=C(CN1C(=O)S/C(=C\c2c(Cl)cccc2Cl)C1=O)Nc1cccnc1	103	x	x	-26
COc1cc2[nH]c3c(=O)n(CC(=O)N4CCN(c5ccc(F)cc5)CC4)cnc3c2cc1OC	107	x	x	-9
CSc1nc(N)cc(=O)[nH]1	x	109	93	7
CCOCCCNC(=O)Cn1c(CC)nc2onc(C)c2c1=O	104	x	x	-2
C=CCOc1ccc2oc(=O)cc(C)c2c1	104	110	67	-20
CCc1cccc2sc(N3CCN(C(=O)c4cc5ccccc5cc4OC)CC3)nc12	103	99	102	x
CCC1CCCCN1C(=O)CSc1nc2ccccc2s1 (stereo unspecified)	x	91	91	4
COc1ccc(-c2noc(-c3cc(C(C)C)[nH]n3)n2)cc1	104	97	87	x
COc1cc(NC(=O)Cn2c(C)cc(C)c(S(=O)(=O)c3ccc(Cl)cc3)c2=O)cc(OC)c1	118	x	x	-10
CC1CCCCN1S(=O)(=O)c1ccc(I)cc1 (stereo unspecified)	103	103	105	-5
CCN1CCCC1CNC(=O)c1ccc(-n2c(C)cc3c2CCC(C)C3)cc1 (stereo unspecified)	106	x	x	3
Cc1cc(F)ccc1NC(=O)CCS(=O)(=O)c1cc2c(cc1C)NC(=O)CO2	108	92	81	x
Cn1cc(S(=O)(=O)N2CCCCC2)cc1C(=O)Nc1ccc(F)c(Cl)c1	106	x	x	-12
CC1(C)CC(=O)C/C(=N\NC(=S)Nc2ccc(S(=O)(=O)N3CCOCC3)cc2)C1	x	74	53	-13
C/C(=N\NC(=S)Nc1cccc(C)c1C)c1ccc(S(=O)(=O)NCc2ccco2)cc1	x	92	90	-31
COc1ccc(-n2nc3ccc(NC(=O)c4c(OC)cccc4OC)cc3n2)cc1	107	100	105	-8
c1ccc(-c2nn3c(CN4CCOCC4)nnc3c3ccccc23)cc1	100	81	96	-25
CC(=O)Nc1ccc(-c2cn3cccc(C)c3n2)cc1	103	86	95	x
CCc1ccc2[nH]c(C)c(CN(C)C)c(=O)c2c1	105	94	94	-14
CN1CCN(C(=O)C2CCC(=O)N2Cc2ccccc2Cl)CC1 (stereo unspecified)	101	85	85	8
O=C(CSc1nc2c([nH]c3ccccc32)c(=O)n1-c1ccccc1)N1CCOCC1	106	123	89	x
Cc1ccc(C)c(NC(=O)c2cc(=O)c3cc(C)cc(C)c3o2)c1	103	99	81	-23
O=C(Nc1cccc(Cl)c1)OCc1ccc2c(c1)OCO2	105	75	66	-16

Molecules above containing an aryl thioether with sulfur outside any ring, in the order listed:
SMILES	GIV Gai3 FP	Sa growth 42C	Sa growth 42C second temp	HCMV UL50-53 inh
Cc1cc2c(=O)n(Cc3ccco3)c(SCC(=O)N3CCc4ccccc4C3)nc2s1	101	93	102	-1
CCOC(=O)c1c(C2CC2)csc1NC(=O)Cn1c(SC(C)C)nc2ccccc21	x	120	107	-5
CC(c1nnc(SCC(=O)Nc2sccc2C#N)n1-c1ccc(Cl)cc1)N(C)C (stereo unspecified)	x	93	95	-17
CCC(C)n1c(SCC(=O)Nc2ccc(OC)cc2OC)nc2ccsc2c1=O (stereo unspecified)	104	94	86	4
Cc1cc(C)c2c(n1)sc1c(Sc3nccn3C)ncnc12	104	107	99	46
COC(=O)c1c(NC(=O)CSc2nnc3sc4ccccc4n23)sc2c1CCCC2	103	x	x	-32
Cc1cc(C)n2nc(SCC(=O)N(C)Cc3ccccc3)nc2n1	x	89	95	-16
CCC(C)NC(=O)CSc1c2c(nc3ccccc13)CCCC2 (stereo unspecified)	106	90	92	x
N#Cc1cc2c(=O)n3ccccc3nc2n(-c2nnc(SCc3ccccc3)s2)c1=O	100	105	90	-78
CCN(CC)CCSc1nnnn1-c1ccccc1	101	87	84	-20
CSc1nc(N)cc(=O)[nH]1	x	109	93	7
CCC1CCCCN1C(=O)CSc1nc2ccccc2s1 (stereo unspecified)	x	91	91	4
O=C(CSc1nc2c([nH]c3ccccc32)c(=O)n1-c1ccccc1)N1CCOCC1	106	123	89	x
